Bioassay records deposited in PubChem by several laboratories.
Mtb hypoxia rep: PubChem AID 1159583; M. tuberculosis hypoxia-regulated fluorescent reporter, fluorescence; hit rate 0.1% among 300,000; fluorescence inhibition, % (concentration not given with the values);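 active = 35 to 45% if threefold the growth effect, above 45% if 1.5-fold the growth effect; inactive = the rest, general growth blockers included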;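 note: wells of about 50 µL received 100 nL stock; 0% = vehicle wells and 100% = reference inhibitor wells; whole bacteria with a GFP reporter of the hypoxia response; strong numbers were not always called active; many hits fall short of the cut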
RN4220 kill: growth inhibition of S. aureus RN4220, primary screen, OD600; 16 h; inhibition, % (no concentration beside the values); hit rate 0.33% among 330,000; AID 1259311, 2017;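 active = z-score of -3 or lower and OD600 up to 0.18 on both plates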;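 note: plate controls were untreated cells for no effect and reference antibiotic for full effect; stock transfer was 100 nL into about 80 µL; one replicate is shown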
BJeLR lethal: MLPCN primary cell-based screen for lethality selective to Ras in HRASV12 cells. inhibition, % (concentration not given with the values). AID 1554, 2009. BJeLR (HRASV12) viability, CellTiter-Glo ATP luminescence, 48 h; reference of the scale not given here. hit rate 0.17% among 300,000;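 active = replicate mean above 50%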;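 note: 50 nL library stock added to about 25 µL; numbers are from one replicate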
ugtP null kill: growth inhibition of ugtP-null S. aureus, primary screen, RN4220 ugtP deletion, OD600 | 16 h; some inactives read as strong as hits | growth inhibition, % (test concentration not listed) | hit rate 0.54% among 330,000 | AID 1259309, 2017;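 active = z-score under -3 and OD600 up to 0.15 on both plates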;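 note: plate controls were untreated wells for no effect and antibiotic for full effect; wells of about 80 µL received 100 nL stock; the first replicate is given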
PrP UTR inh: inhibition of PrP 5' UTR reporter expression. cell-based PrP 5' UTR mRNA reporter, plate reader. inhibition, % (no concentration beside the values). hit rate 0.35% among 340,000;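 active = every replicate at 50% or more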;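 note: 0 = median of the neutral control wells; tested in H4 reporter cells; numbers are from one replicate; inactives centre near -14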
Autofluor counter: flagged as autofluorescent in microsphere protease counterscreen; hit rate 3.1% among 360,000; fluorescence intensity (concentration not given with the values); compound autofluorescence counterscreen, microsphere flow cytometry; stronger effect = higher value;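 active = at least 3 SD above the mean of all compounds, about 16000 in these data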;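 note: 100 nL of 1 mM stock went into each well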
Mtb hypoxia rep growth: further read-out of Mtb hypoxia rep, marked with its call; growth inhibition, %; measured here: M. tuberculosis growth (absorbance);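 0% = vehicle and 100% = reference antibiotic; read after six days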
Numbers without * were called inactive.

`CC(C)c1nc2cc(C(=O)N3CCNC(=O)C3c3ccc(F)cc3)ccc2o1` (stereo not given) gave Mtb hypoxia rep 8, RN4220 kill 5.7, BJeLR lethal 7, ugtP null kill 4, PrP UTR inh -15, Autofluor counter 5165 and Mtb hypoxia rep growth 8.
Screening C#Cc1cccc(NC(=O)C2CCN(C(C)=O)CC2)c1 returned Mtb hypoxia rep 7, RN4220 kill -6.9, BJeLR lethal 9, ugtP null kill 3, PrP UTR inh -10, Autofluor counter 4051 and Mtb hypoxia rep growth -2.
COc1cccc(C(=O)NC(=S)Nc2ccc([N+](=O)[O-])cc2C)c1 was read as Mtb hypoxia rep 2, RN4220 kill 2.4, BJeLR lethal -3, ugtP null kill 11, PrP UTR inh -20, Autofluor counter 2216 and Mtb hypoxia rep growth 4.
For O=C(NCc1cccs1)C1CCN(c2nc3ccccc3o2)CC1 the results were Mtb hypoxia rep -7, RN4220 kill 2.6, BJeLR lethal -10, ugtP null kill 9, PrP UTR inh -6, Autofluor counter 8060 and Mtb hypoxia rep growth 1.
For CC(NC(=O)COc1ccc(S(=O)(=O)N2CCOCC2)cc1)c1ccccc1 (stereo not given) the results were Mtb hypoxia rep 5, RN4220 kill 1.7, ugtP null kill 0, PrP UTR inh -4, Autofluor counter 8964 and Mtb hypoxia rep growth 7.
Screening COC1CCN(C(=O)c2ccc3oc(Cc4ccc(Cl)cc4)nc3c2)CC1 returned Mtb hypoxia rep -4, RN4220 kill 0.8, BJeLR lethal -7, ugtP null kill 8, PrP UTR inh -15, Autofluor counter 6439 and Mtb hypoxia rep growth -3.
O=C(OCC(=O)N1CCOCC1)c1ccccc1OCc1ccc(Cl)cc1 was read as Mtb hypoxia rep 8, RN4220 kill 6.2, ugtP null kill 16, PrP UTR inh -25, Autofluor counter 3970 and Mtb hypoxia rep growth 3.
`CC(OC(=O)Cc1coc2ccc3ccccc3c12)C(=O)Nc1ncc(Cl)cc1Cl` (stereo not given) gave Mtb hypoxia rep -4, RN4220 kill 5.1, BJeLR lethal -8, ugtP null kill -21, PrP UTR inh -10, Autofluor counter 8182 and Mtb hypoxia rep growth -1.
`CN(C(=O)COC(=O)c1ccc(S(=O)(=O)N2CCOCC2)cc1)c1ccccc1` gave Mtb hypoxia rep 4, RN4220 kill 2.4, ugtP null kill 0, PrP UTR inh -19, Autofluor counter 4146 and Mtb hypoxia rep growth 4.
O=C(O)CC(NC(=O)Cc1ccccc1)c1ccccc1 (stereo not given) was read as Mtb hypoxia rep 4, RN4220 kill 2.5, BJeLR lethal -1, ugtP null kill 8, PrP UTR inh -25, Autofluor counter 3816 and Mtb hypoxia rep growth 9.

Ordered by length of the SMILES (highest first): some entries from above
`CC(OC(=O)Cc1coc2ccc3ccccc3c12)C(=O)Nc1ncc(Cl)cc1Cl` (stereo not given) gave Mtb hypoxia rep -4, RN4220 kill 5.1, BJeLR lethal -8, ugtP null kill -21, PrP UTR inh -10, Autofluor counter 8182 and Mtb hypoxia rep growth -1.
`CC(C)c1nc2cc(C(=O)N3CCNC(=O)C3c3ccc(F)cc3)ccc2o1` (stereo not given) gave Mtb hypoxia rep 8, RN4220 kill 5.7, BJeLR lethal 7, ugtP null kill 4, PrP UTR inh -15, Autofluor counter 5165 and Mtb hypoxia rep growth 8.
COc1cccc(C(=O)NC(=S)Nc2ccc([N+](=O)[O-])cc2C)c1 was read as Mtb hypoxia rep 2, RN4220 kill 2.4, BJeLR lethal -3, ugtP null kill 11, PrP UTR inh -20, Autofluor counter 2216 and Mtb hypoxia rep growth 4.
O=C(O)CC(NC(=O)Cc1ccccc1)c1ccccc1 (stereo not given) was read as Mtb hypoxia rep 4, RN4220 kill 2.5, BJeLR lethal -1, ugtP null kill 8, PrP UTR inh -25, Autofluor counter 3816 and Mtb hypoxia rep growth 9.

Going on with the list.
For O=C(O)CSCC(=O)N1N=C2/C(=C/c3ccccc3)CCCC2C1c1ccccc1 (stereo not given) the results were Mtb hypoxia rep -3, RN4220 kill 9.6, BJeLR lethal -6, ugtP null kill 17, PrP UTR inh -2, Autofluor counter 4190 and Mtb hypoxia rep growth 9.
`O=C(CSc1nc2ccccc2c(=O)[nH]1)Nc1cccc([N+](=O)[O-])c1` gave Mtb hypoxia rep -1, RN4220 kill 1.4, BJeLR lethal 3, ugtP null kill 6, PrP UTR inh -10, Autofluor counter 5321 and Mtb hypoxia rep growth -10.
For COc1cc(/C=C(/C#N)C(=O)Nc2ccccc2)ccc1OCc1ccc(C(=O)O)cc1 the results were Mtb hypoxia rep 2, RN4220 kill 2.0, BJeLR lethal -1, ugtP null kill -3, PrP UTR inh -18, Autofluor counter 2646 and Mtb hypoxia rep growth 4.
CCn1c(Cc2cccs2)nnc1SCC(=O)NC(C)(C)C was read as Mtb hypoxia rep 8, RN4220 kill 0.8, BJeLR lethal 18, ugtP null kill 0, PrP UTR inh -18, Autofluor counter 4323 and Mtb hypoxia rep growth -2.
`O=C(COC(=O)C1(c2ccccc2)CC1)N1CCN(c2ccc(F)cc2)CC1` gave RN4220 kill 2.1, BJeLR lethal 10, ugtP null kill 16, PrP UTR inh -7 and Autofluor counter 3344.
CCOC(=O)N1CCN(S(=O)(=O)c2ccc(C(=O)N(CCN(C)C)c3nc4c(C)cccc4s3)cc2)CC1 was read as Mtb hypoxia rep 2, RN4220 kill 0.2, BJeLR lethal 0, ugtP null kill 8, PrP UTR inh -35, Autofluor counter 6053 and Mtb hypoxia rep growth -3.
CCN(CC)S(=O)(=O)c1ccc(OC)c(NC(=O)CSCc2c(C)noc2C)c1 was read as Mtb hypoxia rep -4, RN4220 kill 1.6, ugtP null kill -2, PrP UTR inh -14, Autofluor counter 4256 and Mtb hypoxia rep growth -4.
O=C(NCc1ccncc1)c1ccc(Oc2ccccc2)cc1 was read as Mtb hypoxia rep -4, RN4220 kill -2.4, BJeLR lethal -30, ugtP null kill 8, PrP UTR inh -9, Autofluor counter 4403 and Mtb hypoxia rep growth 6.
For CCOC(=O)c1ccc(-n2nc(C)cc2C)cc1 the results were Mtb hypoxia rep -5, RN4220 kill -3.1, BJeLR lethal -14, ugtP null kill 3, PrP UTR inh -20, Autofluor counter 3196 and Mtb hypoxia rep growth -2.
Cn1c(=O)c2[nH]c(Cc3cccc(O)c3)nc2n(C)c1=O was read as Mtb hypoxia rep 3, RN4220 kill 0.2, ugtP null kill -3, PrP UTR inh -1, Autofluor counter 3713 and Mtb hypoxia rep growth 8.
`COC(=O)c1sc(NC(=O)CSc2nnc(Cn3nnc4ccccc43)n2C)nc1C` gave Mtb hypoxia rep -3, RN4220 kill 3.7, BJeLR lethal 1, ugtP null kill 11, PrP UTR inh -20, Autofluor counter 2519 and Mtb hypoxia rep growth -7.
`Cc1oc2ccc(O)cc2c1C(=O)OC(C)C` gave Mtb hypoxia rep 11, RN4220 kill 5.5, BJeLR lethal -2, ugtP null kill -3, PrP UTR inh -19, Autofluor counter 8781 and Mtb hypoxia rep growth 0.
For Cc1ccc(C(=O)NCc2ccc3c(c2)OCO3)o1 the results were RN4220 kill 1.5, BJeLR lethal -5, ugtP null kill -2, PrP UTR inh -2 and Autofluor counter 4025.
COc1ccccc1CC(=O)Nc1ccc(-c2noc(COc3cccc(C)c3C)n2)cc1 was read as Mtb hypoxia rep 7, RN4220 kill -3.8, BJeLR lethal -5, ugtP null kill 20, PrP UTR inh -31, Autofluor counter 5327 and Mtb hypoxia rep growth 7.
For O=C(NCc1cn2ccsc2n1)Nc1cccc(Cl)c1 the results were Mtb hypoxia rep 4, RN4220 kill 3.4, BJeLR lethal 2, ugtP null kill -12, PrP UTR inh -39, Autofluor counter 2265 and Mtb hypoxia rep growth 2.
For CC(=NNc1nc(C)cc(-c2ccccc2)n1)c1ccco1 the results were Mtb hypoxia rep -4, RN4220 kill 8.9, ugtP null kill -2 and Mtb hypoxia rep growth -2.
For CC(C)(Cl)C1Cc2cc3ccc(=O)oc3cc2O1 (stereo not given) the results were Mtb hypoxia rep 17, RN4220 kill 5.8, BJeLR lethal -6, ugtP null kill 5, PrP UTR inh -120, Autofluor counter 7253 and Mtb hypoxia rep growth 1.
`CCOc1ccc(S(=O)(=O)NCC2CCCO2)c2ccccc12` (stereo not given) gave Mtb hypoxia rep 6, RN4220 kill 5.9, BJeLR lethal -7, ugtP null kill 3, PrP UTR inh -9, Autofluor counter 3433 and Mtb hypoxia rep growth 2.
Screening COc1ccc(C(NC(=O)c2cccc(F)c2)c2ccccc2)cc1 (stereo not given) returned Mtb hypoxia rep 1, RN4220 kill 2.5, BJeLR lethal -1, ugtP null kill -5, PrP UTR inh -31, Autofluor counter 2413 and Mtb hypoxia rep growth 2.
CN(Cc1nc(-c2cnccn2)no1)Cc1n[nH]c2c1CCCC2 was read as Mtb hypoxia rep 7, RN4220 kill 2.3, BJeLR lethal 8, ugtP null kill 6, PrP UTR inh -1, Autofluor counter 3641 and Mtb hypoxia rep growth 2.
O=S(=O)(N=C(Sc1ccc(Cl)cc1)c1ccccc1)c1ccccc1 was read as Mtb hypoxia rep 7, RN4220 kill 26, ugtP null kill 92* and Mtb hypoxia rep growth 5.
Screening CC(=O)c1cccc2c(O)c(C3=Nc4ccccc4C3=O)[nH]c12 returned Mtb hypoxia rep 1, RN4220 kill 29, BJeLR lethal 8, ugtP null kill 8, PrP UTR inh -51, Autofluor counter 4356 and Mtb hypoxia rep growth 4.
CCCN(CCC)c1c([N+](=O)[O-])c(=O)oc2ccccc12 was read as Mtb hypoxia rep 0, RN4220 kill 4.3, BJeLR lethal -7, ugtP null kill 13, PrP UTR inh 9, Autofluor counter 2002 and Mtb hypoxia rep growth 2.
`O=C(O)C1CCCCC1C(=O)Nc1cnn(Cc2ccccc2)c1` (stereo not given) gave Mtb hypoxia rep 16, RN4220 kill -19, BJeLR lethal 8, ugtP null kill 2, PrP UTR inh -11, Autofluor counter 2717 and Mtb hypoxia rep growth -16.
CCOC(=O)N1CCN(c2c(NCCc3ccc(C)cc3)c(=O)c2=O)CC1 was read as Mtb hypoxia rep 0, RN4220 kill 1.3, BJeLR lethal 1, ugtP null kill 5, PrP UTR inh -3, Autofluor counter 5662 and Mtb hypoxia rep growth -3.
Screening CC(=O)N(CCS(=O)(=O)c1ccc(Cl)cc1)Cc1cccs1 returned Mtb hypoxia rep -6, RN4220 kill -0.4, BJeLR lethal -1, ugtP null kill -5, PrP UTR inh -11, Autofluor counter 4832 and Mtb hypoxia rep growth 5.
`CN(Cc1ccccc1)C(=O)COc1ccc(C(C)(C)C)cc1` gave Mtb hypoxia rep 6, RN4220 kill 8.6, BJeLR lethal 5, ugtP null kill 15, PrP UTR inh -26, Autofluor counter 2852 and Mtb hypoxia rep growth -4.
Screening O=C(Nc1cccc(S(=O)(=O)N2CCOCC2)c1)c1cnn2c(C(F)F)cc(-c3ccccc3)nc12 returned Mtb hypoxia rep 8, RN4220 kill 13, BJeLR lethal -7, ugtP null kill 5, PrP UTR inh 80*, Autofluor counter 4571 and Mtb hypoxia rep growth 2.
`O=C(N/C(=C\c1ccco1)C(=O)N1CCOCC1)c1ccc([N+](=O)[O-])cc1` gave Mtb hypoxia rep 6, RN4220 kill 3.2, BJeLR lethal -6, ugtP null kill 7, PrP UTR inh -22, Autofluor counter 2854 and Mtb hypoxia rep growth 4.
For COCC(=O)Nc1ccc(S(=O)(=O)Nc2cc(C)nc(C)n2)cc1 the results were Mtb hypoxia rep 3, RN4220 kill 1.8, BJeLR lethal 1, ugtP null kill 11, PrP UTR inh 2, Autofluor counter 16012 and Mtb hypoxia rep growth -1.
For CC(C)CC(=O)Nc1cc([N+](=O)[O-])ccc1Cl the results were Mtb hypoxia rep -2, RN4220 kill -1.9, BJeLR lethal 8, ugtP null kill -11, PrP UTR inh -34, Autofluor counter 10661 and Mtb hypoxia rep growth 8.
COc1cc(NC(=O)C[n+]2ccc(C(=O)c3ccccc3)cc2)cc(OC)c1 was read as Mtb hypoxia rep 9, RN4220 kill 3.6, ugtP null kill -1, PrP UTR inh -15, Autofluor counter 4082 and Mtb hypoxia rep growth 11.
Cc1ccc(NC(=O)CN2CCc3ccccc3C2)cc1F was read as Mtb hypoxia rep 12, RN4220 kill 3.0, BJeLR lethal 3, ugtP null kill 13, PrP UTR inh -13, Autofluor counter 4960 and Mtb hypoxia rep growth 1.
CCOC(=O)N1CCN(C(=O)c2ccc3c(c2)sc2nc(-c4ccccc4)cn23)CC1 was read as RN4220 kill 17, BJeLR lethal -9, ugtP null kill -11, PrP UTR inh -83 and Autofluor counter 2834.
